# PrP 5UTR inh: inhibition of PrP 5' UTR reporter expression; 0.35% of 340,000 active; AID 488862, 2010; inhibition, % (no concentration beside the values); cell-based PrP 5' UTR mRNA reporter, plate reader;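 active means every replicate at 50% or more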;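 further: 0 = median of the neutral control wells; tested in H4 reporter cells; numbers are from one replicate; inactives centre near -14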
# Sa ugtP lethal: growth inhibition of ugtP-null S. aureus, primary screen, RN4220 ugtP deletion, OD600; 16 h; some inactives read as strong as hits; growth inhibition, % (no concentration beside the values); 0.54% of 330,000 active; AID 1259309, 2017;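 active means z-score under -3 and OD600 up to 0.15 on both plates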;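 further: plate controls were untreated wells for no effect and antibiotic for full effect; wells of about 80 µL received 100 nL stock; the first replicate is given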
# Sa RN4220 lethal: growth inhibition of S. aureus RN4220, primary screen, OD600 | 16 h | inhibition, % (no concentration beside the values) | 0.33% of 330,000 active | AID 1259311, 2017;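 active means z-score of -3 or lower and OD600 up to 0.18 on both plates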;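 further: plate controls were untreated cells for no effect and reference antibiotic for full effect; stock transfer was 100 nL into about 80 µL; one replicate is shown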
# BJeLR lethal: MLPCN primary cell-based screen for lethality selective to Ras in HRASV12 cells. AID 1554, 2009. BJeLR (HRASV12) viability, CellTiter-Glo ATP luminescence, 48 h; reference of the scale not given here. inhibition, % (concentration not given with the values). 0.17% of 300,000 active;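 active means replicate mean above 50%; inconclusive means above 50% but judged a plate artefact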;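 further: 50 nL library stock added to about 25 µL; numbers are from one replicate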
# Bead autofluor: compound fluorescence in toxin protease inhibitor counterscreen | compound autofluorescence counterscreen, microsphere flow cytometry; active compounds read high | fluorescence intensity (concentration not given with the values) | AID 624483 | 3.1% of 360,000 active;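 active means at least 3 SD above the mean of all compounds, about 16000 in these data; inconclusive means too few beads counted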;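 further: 100 nL of 1 mM stock went into each well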
# Mtb hypoxia inh: PubChem AID 1159583; M. tuberculosis hypoxia-regulated fluorescent reporter, fluorescence; fluorescence inhibition, % (test concentration not listed); 0.1% of 300,000 active;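 active means 35 to 45% if threefold the growth effect, above 45% if 1.5-fold the growth effect; inactive means the rest, general growth blockers included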;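 further: wells of about 50 µL received 100 nL stock; 0% = vehicle wells and 100% = reference inhibitor wells; whole bacteria with a GFP reporter of the hypoxia response; strong numbers were not always called active; many hits fall short of the cut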
# Mtb hypoxia inh growth: second read-out of Mtb hypoxia inh, no call of its own (marks repeat the call); growth inhibition, %; measured here: M. tuberculosis growth (absorbance);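 0% = vehicle and 100% = reference antibiotic; read after six days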
# * hit, by the source's call; ? = inconclusive; · = no result given.
SMILES,PrP 5UTR inh,Sa ugtP lethal,Sa RN4220 lethal,BJeLR lethal,Bead autofluor,Mtb hypoxia inh,Mtb hypoxia inh growth
CCCCCC(=O)Nc1cccc(C2=NOC3(C2)C[C@@H](C(N)=O)N(C(=O)c2cc([N+](=O)[O-])cc([N+](=O)[O-])c2C)C3)c1 (stereo partly drawn),-12,·,·,6,3106,·,·
O=C(NCc1ccc(F)cc1)C(c1cccnc1)N(C(=O)c1csnn1)c1ccccc1 (stereo not drawn),-14,-2,-1.4,-5,3624,-7,5
CC(C)(C)OC(=O)N1CCC(c2c(C(=O)O)cnn2-c2ccc(Cl)cc2)CC1,-10,-9,5.8,-6,7776,3,1
CCCSc1nnc(-c2ccccc2N)c(=O)[nH]1,-52,6,7.7,8,7670,-1,2
CCCCOC(=O)CCCN1C(=O)/C(=C2\SC(=S)N(CCCC(=O)OCCCC)C2=O)SC1=S,·,2,4.4,-6,4596,11,10
CC(C)n1cc(CN2CCN(C)C(CCO)C2)c2ccccc21 (stereo not drawn),-32,7,1.8,3,4154,14,17
COC(=O)C1CCN(CC(=O)NC(=O)NC2CCCCC2)CC1,-19,-7,-1.1,-3,4071,-6,9
CCOc1ccc(-c2nnc(-c3ccncc3)o2)cc1,-52,-13,-2.6,-30,3961,4,6
O=C1CN(C(=O)NCC(=O)N[C@H](C(=O)O)c2ccccc2)c2ccccc2N1,-31,-3,-5.5,3,·,1,8
COc1ccc(-c2c(C)[nH]n3c(=O)c(Cc4ccccc4)c(C)nc23)cc1,-14,-17,-1.8,0,2494,7,13
C=C(C)c1cccc(C(C)(C)NC(=O)N2CCN(C/C=C/c3ccccc3)CC2)c1,-19,-2,-0.7,0,2419,·,·
COc1ccc2[nH]c(=O)c(CN(Cc3nnnn3Cc3ccc(F)cc3)CC3CCCO3)cc2c1 (stereo not drawn),-10,-3,-9.1,9,3018,0,-1
Cc1ccccc1NC(=O)c1ccc(C)c(S(=O)(=O)Nc2ccccn2)c1,-11,2,4.6,-1,18024*,10,7
CCN1CCN(S(=O)(=O)c2ccc(S(=O)(=O)NCC3CCCO3)cc2)CC1 (stereo not drawn),-9,5,6.9,7,9233,5,2
Cc1ccc(NC(=O)C2CC(=O)NC(Nc3cccc(C)c3)=N2)cc1 (stereo not drawn),-14,11,-1.8,-4,2516,·,·
COC(=O)c1ccc(NC(=S)NCCc2cccc(C)c2)cc1,-17,-20,-1.6,-2,9359,8,1
CCCCn1c(N)c(N(CC(C)C)C(=O)Cn2c(=O)cnc3ccccc32)c(=O)[nH]c1=O,-4,3,1.6,11,6175,3,5
Cc1ccc(NC(=S)NCCCN2CCOCC2)cc1C,-10,3,0.6,4,4354,4,-2
Cc1cc(N2C(=O)C(O)=C(C(=O)c3ccc(C)o3)C2c2cccc(Oc3ccccc3)c2)no1 (stereo not drawn),2,·,·,0,5078,·,·
Cc1cc(C)n(C(=O)COc2ccc(Cl)cc2Cl)n1,-8,2,4.4,5,5427,-4,4
CCOc1ccc(C(=O)C2CCN(C(=O)c3ccccc3C(=O)O)CC2)cc1,-20,2,0.4,-3,10131,0,7
C=C1C=C(C)C(C)(O)CC(O)CC(=O)C(O)C(O)C(C)CC(C)OC(=O)C(C)=CCCC=CC(OC)C(O)CC(C)C1 (stereo not drawn),·,6,5.9,·,·,6,9
Cc1cccc(Nc2nnc(SCC(=O)c3ccc(Br)s3)s2)c1C,-11,-22,-6.8,-2,9441,2,0
C=CCn1c(=O)c(C=Nc2cccc([N+](=O)[O-])c2)c(O)n(CCCC)c1=O,-11,-7,5.8,2,3790,12,12
O=C(CCCc1ccccc1)NC1CC1,-19,6,5.5,-15,2546,11,4
O=C(/C=C/c1ccccc1[N+](=O)[O-])NCCCN1CCCC1=O,11,5,2.0,0,4814,7,-3
CCOc1ccc(C2C(C(=O)c3ccc(C)o3)=C(O)C(=O)N2CCN2CCOCC2)cc1OC (stereo not drawn),-19,-12,-6.3,-12,10447,-9,-4
CCC(=O)NCC(c1cccs1)N1CCOCC1 (stereo not drawn),-39,9,2.0,-4,7820,11,3
COc1ccc(OC)c(S(=O)(=O)N2CCC(C(=O)NCCc3ccc(OC)c(OC)c3)CC2)c1,-6,-1,-0.2,1,4220,·,·
O=C1CCCN2N=C(SCC(=O)Nc3cccc(Cl)c3)SC2=N1,-7,-7,7.9,5,6402,-7,-3
CCc1ccc(CNCCc2c[nH]c3ccccc23)cc1,-15,4,1.8,0,3994,6,16
O=C(NCc1ccncc1)c1cccc(S(=O)(=O)NCc2ccccc2)c1,-24,6,-3.1,4,5469,6,-4
Cc1cccc(C)c1NC(=S)NN=Cc1c(Cl)cccc1Cl,·,11,1.7,·,·,-9,9
O=C1NC(=O)C2(CCC(C3CCCCC3)CC2)N1 (stereo not drawn),-20,-1,-0.9,·,3810,9,10
Cc1oc(C(C)(C)C)cc1C(=O)Nc1cccc(/C=C/C(=O)O)c1,-20,-3,0.4,3,3502,·,·
O=C(NCCc1nc2ccccc2[nH]1)c1ccco1,-15,-7,-0.8,-14,4140,5,19
Cc1c(C(=O)NCCSCc2ccccc2Cl)cccc1[N+](=O)[O-],·,-12,2.7,8,10220,11,9
COc1ccc(NC(=O)CN(C)C(=O)C2=COCCO2)cc1,-95,4,1.9,-3,6098,-1,-10
O=C(/C=C/c1ccc(Cl)cc1)NCCCn1ccnc1,-1,3,4.0,1,3606,-3,8
C[C@H](CO)N1C[C@H](C)[C@@H](CN(C)S(=O)(=O)c2cn(C)cn2)Oc2ccc(NC(=O)C3CC3)cc2C1=O,-13,-6,-7.4,·,4090,4,12

# Compound profiles, as listed above:
# O=C(NCc1ccncc1)c1cccc(S(=O)(=O)NCc2ccccc2)c1 is listed with PrP 5UTR inh: -24; Sa ugtP lethal: 6; Sa RN4220 lethal: -3.1; BJeLR lethal: 4; Bead autofluor: 5469; Mtb hypoxia inh: 6; Mtb hypoxia inh growth: -4
# Cc1cc(C)n(C(=O)COc2ccc(Cl)cc2Cl)n1 is listed with PrP 5UTR inh: -8; Sa ugtP lethal: 2; Sa RN4220 lethal: 4.4; BJeLR lethal: 5; Bead autofluor: 5427; Mtb hypoxia inh: -4; Mtb hypoxia inh growth: 4
# COC(=O)C1CCN(CC(=O)NC(=O)NC2CCCCC2)CC1 is listed with PrP 5UTR inh: -19; Sa ugtP lethal: -7; Sa RN4220 lethal: -1.1; BJeLR lethal: -3; Bead autofluor: 4071; Mtb hypoxia inh: -6; Mtb hypoxia inh growth: 9

# The listing picks up with the 5 entries that preceded the break.
SMILES,PrP 5UTR inh,Sa ugtP lethal,Sa RN4220 lethal,BJeLR lethal,Bead autofluor,Mtb hypoxia inh,Mtb hypoxia inh growth
O=C(NCCc1nc2ccccc2[nH]1)c1ccco1,-15,-7,-0.8,-14,4140,5,19
Cc1c(C(=O)NCCSCc2ccccc2Cl)cccc1[N+](=O)[O-],·,-12,2.7,8,10220,11,9
COc1ccc(NC(=O)CN(C)C(=O)C2=COCCO2)cc1,-95,4,1.9,-3,6098,-1,-10
O=C(/C=C/c1ccc(Cl)cc1)NCCCn1ccnc1,-1,3,4.0,1,3606,-3,8
C[C@H](CO)N1C[C@H](C)[C@@H](CN(C)S(=O)(=O)c2cn(C)cn2)Oc2ccc(NC(=O)C3CC3)cc2C1=O,-13,-6,-7.4,·,4090,4,12
COCCCNC(=O)C1CC(=O)N(CCc2ccc(OC)c(OC)c2)C1 (stereo not drawn),-14,16,20,-13,3643,-2,4
CN(Cc1cccs1)C(=O)C1CC(=O)N(Cc2ccccc2)C1 (stereo not drawn),-9,2,0.9,5,6440,-1,9
O=C(NCC1CCCO1)C1CCCN(S(=O)(=O)c2cc(Cl)ccc2Cl)C1 (stereo not drawn),-22,7,2.2,4,6632,2,-3
O=C1CC(/C=C/c2ccco2)=Nc2ccccc2N1,-5,-10,4.6,0,9201,1,4
COCc1nnc(N)s1,3,-6,-14,6,2473,15,8
CCN1C(=O)N[C@@H](c2cccc(C(F)(F)F)c2)[C@H](C(=O)OC)[C@H]1C,-20,·,·,-3,3870,·,·
COc1ccc(CCNC(=O)CSc2ccc(-c3ccccc3)nn2)cc1OC,-18,10,3.3,-6,6135,-3,-4
COc1ccc(OCC(=O)NN=C(C)c2ccc(-n3ccnc3)cc2)cc1,·,5,1.2,·,·,4,7
N#Cc1ccccc1CN1C(=O)NC(Cc2c[nH]c3ccccc23)C1=O (stereo not drawn),-13,-2,3.4,4,2942,13,8
O=C(Nc1ccc(Cl)c(C(F)(F)F)c1)c1ccco1,-36,-20,4.3,·,5505,4,13
COc1ccc(S(=O)(=O)N2CCOC2CNC(=O)C(=O)NCc2ccccc2Cl)cc1 (stereo not drawn),-12,2,-1.4,4,5685,9,-17
CCc1ccc(C(C(=O)NCc2ccc(F)cc2)N(C(=O)c2csnn2)C2CC2)cc1 (stereo not drawn),-4,1,0.3,-6,3827,2,2
Cc1ccnc(Nc2nc(-c3ccc(O)cc3O)cs2)c1,-37,-13,-0.2,-3,3949,-2,-4
O=C(NCc1ccccc1)C(c1ccc(O)cc1)N(C(=O)c1cnccn1)c1ccccc1 (stereo not drawn),-20,17,5.8,-6,3955,8,8
COc1cc(CCC(=O)OCC(=O)N2CCc3ccccc32)cc(OC)c1OC,-24,8,2.9,2,2775,-3,-5
COc1ccc(N2C(=O)NC(=O)/C(=C\c3cn(C)c4ccccc34)C2=O)cc1,-25,-12,1.2,8,4798,7,8
O=C(Nc1cccc(O)c1)c1ccc(S(=O)(=O)N2CCCCCC2)cc1,-28,-4,2.4,-8,6547,9,6
CCOC(=O)C(=CNc1nc2ccc(C(=O)OCC)cc2s1)C(=O)OCC,·,-7,-1.5,1,5849,-10,5
O=[N+]([O-])c1ccc(N=Nc2ccc(O)c3ccccc23)cc1,-52,-7,5.2,·,3073,9,6
O=C(CCC(=O)N(CC(=O)NC1CCCCC1)Cc1ccccc1)Nc1nccs1,-9,11,3.6,11,3848,15,4
CS(=O)c1ccccc1O (stereo not drawn),5,-1,0.1,-4,2529,-3,7
Cc1ccsc1C(=O)OCC(=O)N1CC(=O)Nc2ccccc21,-5,2,-0.6,1,2853,·,·
COc1cc(OC)cc(OCC(O)Cn2ccnc2)c1 (stereo not drawn),-16,0,2.7,3,12753,17,5
CCOC(=O)c1c(CSCc2ccccc2)oc2ccc(O)c(CN(C)C)c12,-7,-10,-3.2,9,3498,5,15
O=C1c2ccccc2C(=O)N1CCOc1ccccc1Br,-32,2,6.5,-3,5918,-6,-7
O=C(c1cn(-c2ccc(Cl)c(Cl)c2)nn1)C1CC1,-26,7,15,1,4336,7,13
CCCn1c(N2CCN(C(=O)/C=C/C(=O)O)CC2)nc2ccccc21,2,6,2.9,-11,3786,3,0
O=c1cc(COc2ccccc2[N+](=O)[O-])nc2sccn12,·,2,7.1,2,·,15,14
CCc1nnc(NC(=O)C2CCCN(S(=O)(=O)c3ccc(OC)cc3)C2)s1 (stereo not drawn),-8,10,0.9,0,2485,2,11
CC(C)(C)c1ccc(S(=O)(=O)N2CCc3nc4ccccc4c(C(=O)O)c3C2)cc1,-11,3,5.2,-2,3625,11,-1
Cc1csc(NC(=O)NC2(C(F)(F)F)Oc3ccccc3O2)n1,-7,5,7.6,-6,8579,-6,16
O=C(CN1CCc2ccccc2C1)N1CCN(S(=O)(=O)c2ccccc2)CC1,-9,-2,2.7,0,?,-3,-7
O=C(Cn1nnc(-c2ccccc2-n2cnnn2)n1)N1CCCCC1,-14,-2,-12,-2,2899,11,9

# Pulled by compound from the list above (2):
SMILES,PrP 5UTR inh,Sa ugtP lethal,Sa RN4220 lethal,BJeLR lethal,Bead autofluor,Mtb hypoxia inh,Mtb hypoxia inh growth
CCOc1ccc(C(=O)C2CCN(C(=O)c3ccccc3C(=O)O)CC2)cc1,-20,2,0.4,-3,10131,0,7
COC(=O)C1CCN(CC(=O)NC(=O)NC2CCCCC2)CC1,-19,-7,-1.1,-3,4071,-6,9

# Results in Bead autofluor and Sa ugtP lethal, for some of the entries so far:
smiles | Bead autofluor | Sa ugtP lethal
COC(=O)c1ccc(NC(=S)NCCc2cccc(C)c2)cc1 | 9359 | -20
CCCCn1c(N)c(N(CC(C)C)C(=O)Cn2c(=O)cnc3ccccc32)c(=O)[nH]c1=O | 6175 | 3
Cc1ccc(NC(=S)NCCCN2CCOCC2)cc1C | 4354 | 3

# Screening results from PubChem BioAssay.
